HPGD inh: qHTS Assay for Inhibitors of HPGD (15-Hydroxyprostaglandin Dehydrogenase); Potency, µM, for the others: top-dose activity change, negative = inhibition, most hits filed as inhibitors; hit rate 4.3% among 150,000; purified HPGD, NADH fluorescence kinetic, PGE2 substrate; active = well fitted inhibition curve with a large enough effect (not every such curve was filed as active); inconclusive = small, poorly fitted or top-dose-only effect, or another doubt; inactive = no such curve, though single readings can be large or run the other way;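 also: top concentration of the series not given in the record; plate controls included wells without enzyme; inactives centre near -10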
Target sequence (P15428 whole entry, looked up): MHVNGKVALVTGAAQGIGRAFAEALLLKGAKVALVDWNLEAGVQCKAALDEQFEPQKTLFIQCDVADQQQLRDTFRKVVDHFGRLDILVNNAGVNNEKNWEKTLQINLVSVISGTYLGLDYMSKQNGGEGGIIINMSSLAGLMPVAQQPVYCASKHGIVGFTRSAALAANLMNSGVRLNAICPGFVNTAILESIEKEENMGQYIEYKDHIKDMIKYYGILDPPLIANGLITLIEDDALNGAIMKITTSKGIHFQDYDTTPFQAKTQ
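20 nM HPGD preincubated 15 min at room temperature with compound in 50 mM Tris-HCl pH 8, 0.01% Tween 20. Started with 1 mM NAD+ and 30 uM prostaglandin E2; NADH fluorescence (360/450 nm) read 5 times over 30-s intervals, last minus first.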
* hit, by the source's call; ? = inconclusive; & = joins results of further samples. % is scaled to controls: 0 for no effect and ±100 for the full control effect; potency is read from the fitted curve at half-maximal effect. An excerpt; rates above refer to the full screens.

SMILES	HPGD inh
CCN(CC)CCN1C(=O)C2C3c4ccccc4C(c4ccccc43)C2C1=O (configuration not stated)	-6%
Cc1ccc(OCc2nnc(SCC(=O)NCc3ccco3)n2C)cc1	-3%
CCc1ccc(OCc2nnc(SCCN3CCOCC3)n2CC)cc1	-3%
O=c1cc(/N=C/c2coc3c(ccc4ccccc43)c2=O)[nH]c(=S)[nH]1	2.2µM*
Cc1nnnn1-c1cccc(C(=O)O)c1	-11%
CC(C)c1ccccc1NC(=O)C1CN(S(=O)(=O)c2ccccc2)CCN1S(=O)(=O)c1ccccc1 (configuration not stated)	-9%
CC(=O)Nc1ccc(SCC(=O)c2cc(C)n(C)c2C)cc1	-3%
CC(C)C(NC(=O)c1ccc2c(c1)OCO2)C(=O)N/N=C/c1cccs1 (configuration not stated)	-5%
C/C(=N\NC(=O)Cc1csc(N2CCOCC2)n1)c1ccccc1	-10%
COc1ccc(OC)c(-n2nnnc2SCC(=O)Nc2cc(C)ccc2OC)c1	-1%
CC(NC(=O)CCNS(=O)(=O)c1ccc2c(c1)c(=O)n(C)c(=O)n2C)c1ccccc1 (configuration not stated)	1%
Cc1ccc(N(C(=O)CS(=O)CC(=O)Nc2ccc(F)cc2)C(C(=O)NC2CCCCC2)c2ccco2)cc1 (configuration not stated)	-18%
Cc1ccc(CNC(=O)CN(Cc2ccccc2)S(C)(=O)=O)cc1	-9%
COCCN1CN=C(Nc2nc3ccccc3o2)NC1	4%
Cc1c(-n2c(=S)[nH]c3ccccc3c2=O)c(=O)n(-c2ccccc2)n1C	0%
Cc1ccc(C(c2nnnn2CS(=O)(=O)c2ccc(C)cc2)N2CCC(C(N)=O)CC2)cc1 (configuration not stated)	-7%
CN(Cc1cc2ccccc2[nH]c1=O)C(=O)C1CCCCC1	-19%
Cn1c(=O)c(=O)n(C)c2cc(S(=O)(=O)N3CCCCCC3)ccc21	-26%
OCCN1CCN(CC(O)COc2ccc3ccccc3c2)CC1 (configuration not stated)	-12%
Cc1c(C)n(CC(O)CN2CCCCC2)c2ccccc12 (configuration not stated)	-14%
CNC(=O)Cn1c(=O)n(C)c2ccccc21	-9%
COc1ccc(OCCOC(=O)c2cccc(-n3cnnn3)c2)cc1	-16%
CC(=O)N1CCN(S(=O)(=O)c2ccc(S(=O)(=O)NC3CC3)cc2)CC1	4%
O=C(c1ccccc1F)N1CCN(c2ccc([N+](=O)[O-])c3ncccc23)CC1	0%
CC(C)(C)C(=O)/C=C(\N)c1ccncc1	-6%
COCCN(C(=S)Nc1ccccc1OC)C1CCN(C(C)=O)CC1	-10%
O=C(CSc1nnc(-c2cccnc2)o1)c1cc2ccccc2oc1=O	-16%
O=C(CC1C(=O)NCCN1C(=O)Nc1ccccc1)Nc1ccc2c(c1)OCCO2 (configuration not stated)	-1%
COc1ccc(CCNC(=O)Cn2nc([N+](=O)[O-])c(Br)c2C)cc1OC	0%
O=C(O)CCOc1ccc2c(c1)OCCO2	-3%
NCC1OC(OC2C(N)CC(N)[C@@H](O)[C@@H]2OC2O[C@H](CO)[C@@H](O[C@@H]3OC(CN)C(O)C(O)C3N)C2O)C(N)C(O)C1O (some centres not stated)	-11%
O=C(Nc1ncccn1)c1ccc(C(F)(F)F)cc1	-13%
O=C(Nc1ccccc1F)C1C2C=CC3(O2)C1C(=O)N(c1cccnc1)C3C(=O)NC1CCCCC1 (configuration not stated)	-6%
Cn1c(Sc2nc3ccccc3n2C)nc2ccccc21	5%
COc1cc(NC(=O)C2CCCN(S(=O)(=O)c3cnc[nH]3)C2)cc(OC)c1 (configuration not stated)	-2%
COc1ccc(NC(=O)CSc2nc(-c3ccc(C)cc3)cc(C(F)(F)F)c2C#N)cc1	-9%
O=C(O)C1CCCCC1C(=O)Nc1ccc2c(c1)CCC2 (configuration not stated)	-8%
CCCCCCCCCCCCCCCC[N+](C)(C)CCN(Cc1ccc(OC)cc1)c1ncccn1	-1%
CCOC(=O)Cc1csc(NC(=O)CSc2nc3sc(C(=O)O)c(C)c3c(=O)[nH]2)n1	?
O=C(O)CCSc1nc(C(F)(F)F)cc(=O)n1-c1ccccc1	-6%
O=C(O)C1(C(=O)O)CCN(S(=O)(=O)c2ccccc2)CC1	-8%
COc1cc2c(cc1NC(=O)Nc1ccccc1)oc1ccccc12	?
Cc1occc1-c1nnc(SCc2cc(=O)n3cc(Br)ccc3n2)n1C	-29%
COc1cc(CN(C2CCCCC2C)S(=O)(=O)c2ccc(S(=O)(=O)NC3CC3)cc2)cc(OC)c1OC (configuration not stated)	-17%
Cc1[nH]nc(-c2ccc(O)c(C)c2O)c1-c1cnn(-c2ccccc2)c1	-19%
CCOc1ccc(S(=O)(=O)N2CCCC2)cc1	-11%
Cc1ccc(C(=O)N2CC(C)SC2=Nc2cccc(S(=O)(=O)N(C)C)c2)cc1 (configuration not stated)	-3%
CS(=O)(=O)Nc1ccc(C(=O)NCc2cccnc2)cc1	-13%
COc1cccc(C2/C(=C(/O)c3ccccc3)C(=O)C(=O)N2CCCC(=O)O)c1 (configuration not stated)	-17%
CC(O)c1nc2ccccc2n1Cc1ccc([N+](=O)[O-])cc1 (configuration not stated)	-7%

Carrying on.
SMILES	HPGD inh
CN(C)[C@@H]1C(=O)C(C(N)=O)=C(O)[C@@]2(O)C(=O)C3=C(O)c4c(O)ccc(Cl)c4[C@@H](O)[C@H]3C[C@@H]12	-5%
COc1ccc2c(CC#N)c[nH]c2c1	-12%
O=C(/N=C1/c2ccccc2CN1c1ccccc1)Nc1ccccc1	-12%
CCCCCCCC(=O)NN1CCOCC1	-1%
COc1ccc(C2c3cc(OC)c(OC)cc3CCN2C2CC(=O)N(c3ccccc3)C2=O)cc1OC (configuration not stated)	-12%
COC(=O)c1ccc(C(NC(=O)c2ccco2)[C@]2(C)C[C@H]2C2CCCCC2)cc1 (some centres not stated)	-11%
CC(C)CCNC(=O)C1CCN(S(=O)(=O)c2ccc3c(c2)CCC(=O)N3)CC1	-3%
CCOc1cc(S(=O)(=O)N2CCC(Cc3ccccc3)CC2)c(OCC)cc1-n1cnnn1	-27%
CC(C)NC(=O)Cn1c(SCC(=O)N2c3ccccc3CC2C)nc2ccccc21 (configuration not stated)	-5%
O=C1CN2C(=Nc3ccc(Br)cc3C2c2ccccc2)CCN1 (configuration not stated)	0%
COc1ccc(CN(CC(=O)NCc2ccco2)C(=O)CCC(=O)Nc2ccccn2)cc1	-15%
COc1ccc(/C=N/NC(=O)C(=O)/C=C2\NC3(CCCC3)Cc3ccccc32)cc1	-16%
Fc1ccc(NC(=S)NCCc2ccccc2)c(F)c1F	25µM*
N#CCC(CNc1ncc(C(F)(F)F)cc1Cl)OC(=O)c1ccc(Cl)cc1Cl (configuration not stated)	?
CCN1C(=O)NC(c2cc(Br)ccc2OC)C(C(=O)OC)=C1C (configuration not stated)	-12%
Cc1ccc(S(=O)(=O)N(C)C)cc1NC(=O)/C=C/c1cccs1	-13%
Fc1ccccc1COc1ccc(/C=N/n2cnnc2)cc1	-18%
CCOc1cc(/C=N/NC(=O)c2ccncc2)ccc1OS(C)(=O)=O	-13%
COCCOC(=O)C1=C(C)NC(=O)NC1c1c(F)cccc1Cl (configuration not stated)	-4%
COC(=O)C1=C(C)N(c2ccc(Cl)cc2)/C(=C/c2cccs2)C1=O	-4%
CCN(CC)CCNC(=O)c1cc2c(-c3ccc(Cl)cc3)nn(C)c2s1	?
CSc1nnc(-c2ccc(Cl)cc2Cl)o1	-20%
CSCCC(NS(=O)(=O)c1ccc(Cl)cc1)C(=O)OCc1cccc(Cl)c1 (configuration not stated)	-12%
CCC(OC(=O)c1cccs1)C(=O)NCc1ccco1 (configuration not stated)	-15%
CCn1c(O)c(/C=N/NC(=O)c2ccncc2)c(=O)n(CC)c1=S	-26%
Cc1nnc2sc(-c3cccc4ccccc34)nn12	?
NC1=NC(c2ccccc2Cl)n2c(nc3ccccc32)N1 (configuration not stated)	-18%
OCCn1nc2c3ccccc3nc-2n(-c2ccccc2)c1=S	?
CCOC(=O)Cc1nnc(NC(=O)CSc2nnc3c4ccccc4n(C(C)C)c3n2)s1	?
Cc1cc2ncn(/N=C/c3ccc(-c4ccccc4)o3)c2cc1C	?

2 of the compounds above, field by field.
> CSc1nnc(-c2ccc(Cl)cc2Cl)o1
  HPGD inh: -20%

> CSCCC(NS(=O)(=O)c1ccc(Cl)cc1)C(=O)OCc1cccc(Cl)c1 (configuration not stated)
  HPGD inh: -12%

The list continues.
SMILES	HPGD inh
Cc1cc(-c2nnc(-c3ccccc3)c(-c3ccccc3)n2)c(C)o1	?
COc1ccc(-n2c(SCC(=O)NNC(=O)c3ccccc3C)nnc2-c2ccncc2)cc1	-12%
COc1ccc(-c2cc(CCCC(=O)N3CCN(c4ccc(OC)cc4)CC3)no2)cc1	-7%
Cc1cc(Nc2ccc(C)c(Br)c2)n2nc(C)nc2n1	?
Cc1ccc(-c2nc(Nc3ccccc3)n[nH]2)cc1	-12%
COc1ccc(-n2c(-c3ccccc3)nc(=S)c3c2CCCC3)cc1	-11%
O=C(Nn1cnnc1)C(c1ccccc1)c1ccccc1	-9%
C=CCOc1ccc(CNc2nccs2)cc1OC	?
CCCCNC(=O)CCC(=O)NNc1nc2ccccc2c2nc(C)nn12	-11%
O=[N+]([O-])c1cnccc1Nc1ccccc1	-12%
C=CCn1c(-c2ccccc2)nc(=S)c2c1CC(C)(C)OC2	-11%
CC1(C)CC(=O)C=C(NCCN2CCN(C(=O)Nc3ccc(Cl)c(Cl)c3)CC2)C1	-9%
COc1cccc(/C(O)=C2/C(=O)C(=O)N(c3ccccn3)C2c2ccc(OC)c(OC)c2)c1 (configuration not stated)	-8%
O=C(c1ccc(Cl)cc1)[C@@H]1[C@@H]2C(=O)N(c3ccccc3)C(=O)[C@@H]2C2c3ccccc3C=NN21 (some centres not stated)	-7%
COc1ccc(-n2nc(C(=O)NCC(=O)Nc3cccc(C)n3)c3ccccc3c2=O)cc1	-2%
COc1ccccc1NC(=O)COC(=O)c1ccc(S(=O)(=O)NCc2ccco2)cc1	-16%
CCOc1ccc(OCC)c(NC(=O)CN2CCN(c3ccc(C)cc3C)CC2)c1	-8%
Cc1cc(C)nc(SC2CCCCC2NS(=O)(=O)c2ccccc2)n1 (configuration not stated)	-11%
CC1=C(/C=C/C(C)=C\C=C\C(C)=C\C(=O)O)C(C)(C)CCC1	-11%&-7%
NC(=O)NC(Cc1ccccc1)C(=O)O (configuration not stated)	-4%

The last 7 records of the section before come first, to join the parts:
SMILES	HPGD inh
O=C(c1ccc(Cl)cc1)[C@@H]1[C@@H]2C(=O)N(c3ccccc3)C(=O)[C@@H]2C2c3ccccc3C=NN21 (some centres not stated)	-7%
COc1ccc(-n2nc(C(=O)NCC(=O)Nc3cccc(C)n3)c3ccccc3c2=O)cc1	-2%
COc1ccccc1NC(=O)COC(=O)c1ccc(S(=O)(=O)NCc2ccco2)cc1	-16%
CCOc1ccc(OCC)c(NC(=O)CN2CCN(c3ccc(C)cc3C)CC2)c1	-8%
Cc1cc(C)nc(SC2CCCCC2NS(=O)(=O)c2ccccc2)n1 (configuration not stated)	-11%
CC1=C(/C=C/C(C)=C\C=C\C(C)=C\C(=O)O)C(C)(C)CCC1	-11%&-7%
NC(=O)NC(Cc1ccccc1)C(=O)O (configuration not stated)	-4%
C=CCNC(=O)CN(c1cccc(Br)c1)S(C)(=O)=O	-2%
Cc1ccc(C)c(N2CCN(C(c3ccncc3)c3nnnn3Cc3ccccc3)CC2)c1 (configuration not stated)	?
O=C(NC1CC2CCC(C1)N2C(=O)NCc1ccccc1)C1CC1 (configuration not stated)	-2%
CNC(=O)c1cc2cc(OC)ccc2n1CCN(C)C	?
CCCCC(=O)Nc1ccc(C(=O)OC2CCCCC2)cc1	-18%
CC(C)CNS(=O)(=O)c1ccc(CCC(=O)NCc2cccnc2)cc1	-15%
Cc1c(C(=O)N2CC(C)OC(C)C2)oc2ccccc12 (configuration not stated)	-6%
Cc1ccc(C)c(S(=O)(=O)N2CCN(C(C)C(=O)Nc3ccccc3-c3ccccc3)CC2)c1 (configuration not stated)	-13%
CCOc1cc(/C=C2\CCC/C(=C\c3cc(Cl)c(O)c(OCC)c3)C2=O)cc(Cl)c1O	16µM*
COC(=O)C(C(=O)OC)[C@@H](NC(=O)OCc1ccccc1)c1ccccc1	-7%
CCOc1cccc(C(=O)Nc2cccc(C(C)=O)c2)c1	-9%
CC(C)c1ccc(C(=O)N/N=C/c2cccc(Cl)c2Cl)cc1	-19%
Cc1ccccc1-n1c(SCC(N)=O)nc2sc(-c3ccccc3)cc2c1=O	-29%
Cc1ccc(NCCC(=O)c2ccc(Cl)c(Cl)c2)cc1	-15%
CC(C)(C)C1CCC2(CC1)Nc1cccc3cccc(c13)N2	-20%
CCOc1cc(/C=N/NC(=O)CN2CCCCC2)ccc1OCc1ccc(Cl)cc1	-10%
CSc1ccccc1C(=O)NC1CCCCC1	-22%

Fetched by structure from the list above:
SMILES	HPGD inh
CSc1ccccc1C(=O)NC1CCCCC1	-22%
CC(C)(C)C1CCC2(CC1)Nc1cccc3cccc(c13)N2	-20%
CCOc1cc(/C=N/NC(=O)CN2CCCCC2)ccc1OCc1ccc(Cl)cc1	-10%
Cc1ccc(NCCC(=O)c2ccc(Cl)c(Cl)c2)cc1	-15%
CC(C)c1ccc(C(=O)N/N=C/c2cccc(Cl)c2Cl)cc1	-19%
